HPGD block = inhibitors of human 15-hydroxyprostaglandin dehydrogenase (HPGD); P15428; 150,000 tested, 4.3% active; purified HPGD, NADH fluorescence kinetic, PGE2 substrate; Potency, µM, for inactives: at the highest dose activity change, negative = inhibition, most hits filed as inhibitors; active = well fitted inhibition curve with a large enough effect (not every such curve was filed as active); inconclusive = small, poorly fitted or top-dose-only effect, or another doubt; inactive = no such curve, though single readings can be large or run the other way;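 also: top concentration of the series not given in the record; plate controls included wells without enzyme; inactives centre near -10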
Target sequence (P15428 whole entry, looked up): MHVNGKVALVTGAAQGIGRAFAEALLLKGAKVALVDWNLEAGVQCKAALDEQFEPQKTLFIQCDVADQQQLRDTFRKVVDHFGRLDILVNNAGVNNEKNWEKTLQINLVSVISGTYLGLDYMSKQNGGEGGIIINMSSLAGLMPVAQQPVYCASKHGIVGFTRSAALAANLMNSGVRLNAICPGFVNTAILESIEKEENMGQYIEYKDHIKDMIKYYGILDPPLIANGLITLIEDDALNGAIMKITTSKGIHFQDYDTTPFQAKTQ
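20 nM HPGD preincubated 15 min at room temperature with compound in 50 mM Tris-HCl pH 8, 0.01% Tween 20. Started with 1 mM NAD+ and 30 uM prostaglandin E2; NADH fluorescence (360/450 nm) read 5 times over 30-s intervals, last minus first.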
Starred values were filed as active, the others as inactive; ? = inconclusive; & = joins results of further samples; [ ] = dose if it differs, or a comment. % is scaled to controls: 0 for no effect and ±100 for the full control effect; potency is read from the fitted curve at half-maximal effect. An excerpt; count on the stated rates, not on these rows.

ClC(Cl)C(Cl)Cl
  HPGD block = -12%
CC(=O)NC(C)Cc1ccccc1 (stereo not given)
  HPGD block = -30%
C[C@@H](N)Cn1ccc2cc(F)c(Cl)cc21
  HPGD block = 6%
O=C(c1csnn1)N1CCC[C@@]2(CCN(Cc3ccncc3)C2)C1
  HPGD block = 4%
NC(CCl)=N[C@H]1CN2CCC1CC2
  HPGD block = -2%
COc1ccc(-c2nc3ccccc3n2OC(=O)N(C)C)cc1
  HPGD block = 78%[activator]
Cc1ccccc1CCNCc1ccc(Br)cc1
  HPGD block = -14%
O=C(COc1ccc(S(=O)(=O)N2CCCCC2)cc1)N1CCN(Cc2ccccc2)CC1
  HPGD block = 2%
CS(=O)(=O)N1CCC2(CCCN(Cc3ccncc3)C2)CC1
  HPGD block = 0%
CC(=O)c1ccc2c(c1)C1C(Cl)C(Sc3ccccc3[N+](=O)[O-])CC1C(c1ccccc1)N2 (stereo not given)
  HPGD block = -25%
O=[N+]([O-])c1cccc(O)c1
  HPGD block = -10%
CN1CCN(Cc2ccccc2Sc2ccccc2)CC1
  HPGD block = -6%
C[C@H](c1ccccc1)N1CCN([C@@H](C)c2ccccc2)CC1
  HPGD block = -3%
C=CC(=O)OCC(C)C
  HPGD block = -9%
O=C1NC(=O)N(CCNc2ncc(C(F)(F)F)cc2Cl)C(=O)C1/C=N/OCc1c(F)cccc1Cl (stereo not given)
  HPGD block = -12%
O=C(CSc1ncnc2c1nnn2-c1ccc(F)cc1)NCC1CCCO1 (stereo not given)
  HPGD block = ?
O=C1NC(=O)C(CCc2ccncc2)(Cc2ccc3c(c2)OCO3)C(=O)N1CCc1ccccc1 (stereo not given)
  HPGD block = -17%
CC(C)N1CCN(c2ccc(O)cc2)CC1
  HPGD block = -14%
COc1ccc(OCC(=O)Nc2ccc(Cl)cc2C(=O)c2ccccc2)cc1
  HPGD block = -14%
CN(C)S(=O)(=O)c1cc(NC(=O)COC(=O)Cc2ccccc2)ccc1Cl
  HPGD block = -11%
CCCc1[nH]nc2c1C1(C(=O)N(Cc3ccccc3)c3ccccc31)C(C(=O)OC)=C(N)O2 (stereo not given)
  HPGD block = 7%
Cc1ccc(NC(=O)c2cn(CCC#N)nc2-c2ccc3c(c2)OCCO3)c([N+](=O)[O-])c1
  HPGD block = -10%
O=C(O)[C@@H]1CSC(c2cccnc2)N1 (stereo not given in full)
  HPGD block = -4%
CCCN1[C@@H]2C[C@@H](O)CC[C@@H]2C[C@H]1C(=O)OC
  HPGD block = -9%
O=c1[nH]c(=S)n(Cc2ccc(F)cc2)c(O)c1/C=N/N1CCCCC1
  HPGD block = -18%

COc1nc2ccccc2c(=O)n1-c1ccc(Cl)cc1
  HPGD block = -9%
Cc1noc(NS(=O)(=O)c2ccc(NC(=O)CCCOc3ccc(Cl)cc3Cl)cc2)c1C
  HPGD block = 25µM*
Cc1[nH]n(-c2ccccc2)c(=O)c1C(c1ccc([N+](=O)[O-])cc1)c1c(C)[nH]n(-c2ccccc2)c1=O
  HPGD block = 28µM*
O=C(COc1ccc2ccccc2c1)N1CCN(C2CCN(Cc3ccccc3)CC2)CC1
  HPGD block = -5%
Clc1cnc(Oc2ccc(Oc3ncc(Cl)cc3Cl)cc2)c(Cl)c1
  HPGD block = 2%&-15%
O=c1c2ccccc2nc(-c2cccs2)n1-c1cnccn1
  HPGD block = -3%
CC1CC(OC(=O)c2ccccc2)CC(C)N1C (stereo not given)
  HPGD block = -11%
Cc1sc2ccccc2c1CC1=NCCN1
  HPGD block = ?
CCCCc1ccc(C(=O)O)nc1
  HPGD block = 7%&-10%&1%
Cc1ccc(CN2CC3CC(C2)c2cccc(=O)n2C3)cc1 (stereo not given)
  HPGD block = 1%
CCCCOC(=O)c1ccccc1C(=O)OCCCC
  HPGD block = -2%&-8%
Cc1oc(-c2ccccc2Cl)nc1CN1C(=O)CN=C(c2ccccc2)c2ccccc21
  HPGD block = 4%
CC[N+](=O)[O-]
  HPGD block = -5%
Cc1sc2ncn(CC(=O)NCCCC(=O)N3CCC4(CC3)OCCO4)c(=O)c2c1C
  HPGD block = -4%
COc1cc2c(cc1O)[C@H]1Cc3ccc(OC)c(O)c3CN1CC2
  HPGD block = -2%
CCOC(=O)C1=C(C)NC(C)=C(C(=O)OC)C1c1cccc(Cl)c1Cl (stereo not given)
  HPGD block = -14%&-20%
CCOP(=S)(OCC)Oc1ccc([N+](=O)[O-])cc1
  HPGD block = -12%&-12%
CCc1ccccc1N1C(=O)/C(=C/c2ccc(N3CCN(C)CC3)o2)C(=O)NC1=S
  HPGD block = -6%
COc1ccc(-c2cc(C(F)(F)F)n3nc(C(=O)N4CCC5(CC4)OCCO5)cc3n2)cc1OC
  HPGD block = 13µM*
CCC(=NCCc1c[nH]c2ccccc12)c1c(O)n(-c2ccc(C)cc2)c(=O)[nH]c1=O
  HPGD block = -10%
O=C1/C(=C\c2ccccc2)C[C@@]2(O)[C@H]3Cc4ccc(O)c5c4[C@@]2(CCN3CC2CC2)[C@@H]1O5
  HPGD block = -14%
Cc1cc(OC(=O)CCNC(=O)OC(C)(C)C)c2c3c(c(=O)oc2c1)CCC3
  HPGD block = ?
O=C(CCCN1CCC(n2c(=O)[nH]c3ccccc32)CC1)c1ccc(F)cc1
  HPGD block = -3%
c1cncc(CNC2=NCCCCC2)c1
  HPGD block = 0%
CCCCn1c(N)c(C(=O)NCCN2CCOCC2)c2nc3ccccc3nc21
  HPGD block = ?

A second format for part of the listing above:
Compound	HPGD block
O=C(COc1ccc(S(=O)(=O)N2CCCCC2)cc1)N1CCN(Cc2ccccc2)CC1	2%
CS(=O)(=O)N1CCC2(CCCN(Cc3ccncc3)C2)CC1	0%
CC(=O)c1ccc2c(c1)C1C(Cl)C(Sc3ccccc3[N+](=O)[O-])CC1C(c1ccccc1)N2 (stereo not given)	-25%
O=[N+]([O-])c1cccc(O)c1	-10%
CN1CCN(Cc2ccccc2Sc2ccccc2)CC1	-6%

New compounds follow
COc1ccc(C(=O)CC2(CC(=O)c3ccc(OC)cc3)C(=O)N(C)C(=O)N(C)C2=O)cc1
  HPGD block = -13%
N#Cc1nn(-c2c(Cl)cc(C(F)(F)F)cc2Cl)c(N)c1S(=O)C(F)(F)F (stereo not given)
  HPGD block = -7%&-14%
CN1C(=O)C(Cc2ccsc2)C(=O)N(C)C1=O
  HPGD block = -15%
CC(=NCc1ccc2c(c1)OCO2)c1c(O)[nH]c(=O)[nH]c1=O
  HPGD block = -20%
CCc1ccc(CNCCc2ccccc2F)cc1
  HPGD block = -6%
O=C(Oc1ccccc1)N1CCC2(CCCN(Cc3ccccc3)C2)CC1
  HPGD block = -5%
c1ccc2c(c1)OCC(C1=NCCN1)O2 (stereo not given)
  HPGD block = 4%&-6%
Cn1c(C(=O)N2CCC(C(=O)N3CCC4(CC3)OCCO4)CC2)cc2sccc21
  HPGD block = 1%
NCCc1ccc(O)cc1
  HPGD block = -6%&-9%&1%&-12%
C[C@]12CCC3C(CC[C@]4(O)C[C@@H](O)CC[C@]34C=O)[C@@]1(O)CC[C@@H]2C1=CC(=O)OC1 (stereo not given in full)
  HPGD block = -2%
CCOC(=O)C1CN(C)CCC1=O (stereo not given)
  HPGD block = -19%
O=C(Cn1cnc2sc3c(c2c1=O)CCCC3)NCCCC(=O)N1CCC2(CC1)OCCO2
  HPGD block = 2%
O=C(COC(=O)c1ccccc1)Nc1ccc(Cl)cc1C(=O)c1ccccc1
  HPGD block = -20%
CCS(=O)(=O)Nc1cccc(C(=C2CCCCC2)c2cnc[nH]2)c1
  HPGD block = -3%
Cc1ccc2c(c1)C1CN(C)CCC1N2S(=O)(=O)c1ccccc1 (stereo not given)
  HPGD block = -9%
O=C1c2ccccc2-c2cccc3cccc1c23
  HPGD block = -7%
CC(=O)OCC1=C(C(=O)[O-])N2C(=O)[C@@H](NC(=O)CCC[C@@H](N)C(=O)[O-])[C@H]2SC1.[Zn+2]
  HPGD block = -8%
C=C(C)C#N
  HPGD block = -4%
O=C1c2ccccc2C2(c3ccc(Cl)cc3)NCCN12 (stereo not given)
  HPGD block = 1%
c1cnc(N2CC3(CCNCC3)C2)nc1
  HPGD block = ?
ClCC(Cl)CCl
  HPGD block = -5%
NC1=N[C@H](O)[C@H]2C3O[C@]4(O)O[C@H](C(O)[C@@]2(N1)[C@@H]4O)C3(O)CO (stereo not given in full)
  HPGD block = -9%
Cc1nn(Cc2ccc(Cl)cc2Cl)c(Cl)c1C(=O)NC1CCCc2ccccc21 (stereo not given)
  HPGD block = -12%
COc1ccc(CCNCc2ccc(OC)c(OC)c2OC)cc1
  HPGD block = -5%
COc1ccc(C[C@H]2NC[C@H](O)[C@@H]2OC(C)=O)cc1
  HPGD block = -13%

COc1cc2c(cc1OC)-c1c(OC)c(OC)cc3c1[C@H](C2)N(C)CC3
  HPGD block = ?
Oc1c(Cl)c(Cl)cc(Cl)c1Cl
  HPGD block = ?
CCCCn1c(O)c(C(C)=Nc2cccc(C(=O)O)c2)c(=O)[nH]c1=O
  HPGD block = -13%
O=C1CCc2c(ccc3ccccc23)O1
  HPGD block = ?
CCCCCCN=Cc1c(O)n(C)c(=O)n(C)c1=O
  HPGD block = 0%
CCOC(=O)N(C)c1ccc(C(O)(C(=O)OC)C(F)(F)F)cc1 (stereo not given)
  HPGD block = -17%
CCCN1CCC[C@H](c2cccc(O)c2)C1
  HPGD block = -11%
Cc1ccc(Cn2nnnc2CN2CCC(n3nnc4cc(C)ccc43)CC2)cc1
  HPGD block = -7%
C=CCO
  HPGD block = -8%
CCCCCCCCCC(=O)O[C@H]1CC[C@H]2[C@@H]3CCC4=CC(=O)CC[C@@H]4[C@H]3CC[C@]12C
  HPGD block = -9%
CC(O)(CS(=O)(=O)c1ccccc1)C(=O)Nc1ccc(C(F)(F)F)cc1 (stereo not given)
  HPGD block = -13%
c1cc2c(c(NC3=NCCN3)c1)CCCC2
  HPGD block = -1%
C=C1C2CC[C@@]3(C)C(c4ccoc4)OC(=O)C[C@@]13OC1CC(=O)C(C)(C)C(C(OC(C)=O)C(=O)OC)[C@@]12C (stereo not given in full)
  HPGD block = -4%
CC#CP(=O)(OCC)C(O)(c1ccccc1)C(F)(F)F (stereo not given)
  HPGD block = -11%
O=C(O)c1nonc1-c1nonc1C(=O)O
  HPGD block = -9%
Cc1ccc(N)cc1N
  HPGD block = -7%
O=c1c2ccccc2nc(-c2ccoc2)n1-c1ccccc1Cl
  HPGD block = -20%
Cn1cccc1CNCCc1ccccc1F
  HPGD block = 3%
CCCCCl
  HPGD block = -5%
Cc1cc(/C=C2\C(=O)NC(=O)N(C)C2=O)c(C)n1-c1ccc2c(c1)OCO2
  HPGD block = -20%
Oc1ccc(Cl)cc1Cl
  HPGD block = -10%
COc1ccccc1-n1c(O)c(C=NC2CC2)c(=O)[nH]c1=O
  HPGD block = -2%
COc1cc2c3cc1Oc1c(OC)c(OC)cc4c1C(Cc1cccc(c1)Oc1ccc(c(O)c1)CC3N(C)CC2)N(C)CC4 (stereo not given)
  HPGD block = ?
CCCC(=O)c1c(O)[nH]c(=O)[nH]c1=O
  HPGD block = -5%
CCCN1CC(C)C(OC(C)=O)(c2ccccc2)CC1C (stereo not given)
  HPGD block = -16%

Three entries from above in a different format:
| SMILES | HPGD block |
| --- | --- |
| CC#CP(=O)(OCC)C(O)(c1ccccc1)C(F)(F)F (stereo not given) | -11% |
| O=c1c2ccccc2nc(-c2ccoc2)n1-c1ccccc1Cl | -20% |
| O=C1CCc2c(ccc3ccccc23)O1 | ? |

7 structures already listed, sorted by count of non-hydrogen atoms, descending.
CCCCn1c(O)c(C(C)=Nc2cccc(C(=O)O)c2)c(=O)[nH]c1=O
  HPGD block = -13%
CCOC(=O)N(C)c1ccc(C(O)(C(=O)OC)C(F)(F)F)cc1 (stereo not given)
  HPGD block = -17%
Cn1cccc1CNCCc1ccccc1F
  HPGD block = 3%
O=C(O)c1nonc1-c1nonc1C(=O)O
  HPGD block = -9%
Oc1c(Cl)c(Cl)cc(Cl)c1Cl
  HPGD block = ?
CCCCCl
  HPGD block = -5%
C=CCO
  HPGD block = -8%

The listing continues:
CC(=O)[C@H]1CC[C@H]2[C@@H]3CC[C@H]4C[C@H](O)CC[C@]4(C)[C@H]3C(=O)C[C@]12C
  HPGD block = 1%&-3%
CC(=O)O[C@@H]1CN2CCC1CC2
  HPGD block = -4%
CC(=Nc1ccc2c(c1)CCC2)c1c(O)n(C)c(=O)n(C)c1=O
  HPGD block = -2%
Cn1c(O)c(C=NCCc2c[nH]c3ccccc23)c(=O)n(C)c1=O
  HPGD block = -5%
CCOC(=O)c1ccccc1N
  HPGD block = -4%
O=C(CCCC1=NS(=O)(=O)c2ccccc2N1)N1CCC2(CC1)OCCO2
  HPGD block = 3%
Cc1ccc(C(=O)NC(O)C(Cl)(Cl)Cl)cc1 (stereo not given)
  HPGD block = 14µM*
O=C(c1c[nH]c(C(=O)C(Cl)(Cl)Cl)c1)c1ccccc1Cl
  HPGD block = 14µM*
Cc1nn(C)c(C)c1P(=S)(c1c(C)nn(C)c1C)N(C)C
  HPGD block = -17%
